Source: PubChem
VDR inh: vitamin D3 receptor (human) inhibition; Potency, µM, for the others: max response, negative = inhibition, usual class: inhibitors; 0.93% of 400,000 active; VDR-SRC2-3 peptide fluorescence polarization, 2 h; AID 504847; active = well fitted inhibition curve with a large enough effect; inconclusive = small, poorly fitted or top-dose-only effect, or another doubt; inactive = no such curve, though single readings can be large or run the other way; note: series mostly up to about 120 µM
Target sequence (P11473 whole entry, looked up): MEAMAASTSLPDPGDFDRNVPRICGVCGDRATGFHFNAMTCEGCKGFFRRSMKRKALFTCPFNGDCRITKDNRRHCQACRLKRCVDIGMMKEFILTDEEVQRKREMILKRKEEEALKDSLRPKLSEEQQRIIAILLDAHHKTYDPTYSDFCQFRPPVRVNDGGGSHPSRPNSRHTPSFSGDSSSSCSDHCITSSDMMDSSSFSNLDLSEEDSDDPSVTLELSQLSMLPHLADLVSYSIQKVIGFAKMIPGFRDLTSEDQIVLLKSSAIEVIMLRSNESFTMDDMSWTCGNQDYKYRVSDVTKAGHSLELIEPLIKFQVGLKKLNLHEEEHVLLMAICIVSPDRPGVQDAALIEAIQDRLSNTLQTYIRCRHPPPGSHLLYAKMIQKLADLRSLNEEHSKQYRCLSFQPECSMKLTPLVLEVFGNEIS
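VDR–SRC2-3 interaction, FP format. Cmpds 23 nl via pintool, brief spin, 2 h ambient incubation.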
Active calls of the source: *; ? = inconclusive; & = joins results of further samples. % is set by controls: 0 for no effect and ±100 for the full control effect; potency is the fitted concentration of half-maximal effect.

The opening 17 records as a preview:
SMILES | VDR inh
CN(Cc1cccs1)C(=O)CN1C(=O)c2ccccc2S1(=O)=O | -6%
Cc1c(Cl)cccc1NC(=O)Nc1ccc(C(N)=O)cc1 | 7%
Cc1nn(CC(=O)N2CCN(C)CC2)c(=O)c2ccccc12 | -20%
Oc1ccc(Br)cc1CNc1nccs1 | -5%
CCC(=O)Oc1oc(-c2ccccc2)nc1C=Nc1ccc(C)cc1 | -10%
N#Cc1ccc(OCCN2CCc3ccccc3C2)cc1 | 6%
CN(C(=O)COC(=O)c1ccc(C(C)(C)C)cc1)C1CCS(=O)(=O)C1 (centres undefined) | 2%
Clc1ccc(Nc2ccccc2)nn1 | -1%
OC(COc1ccc(F)cc1)CN1CCN(c2ccccc2F)CC1 (centres undefined) | 13%
Cc1cccc(OCCCC(=O)Nc2ccc(S(=O)(=O)N3CCCC3)cc2)c1 | -4%
Cn1c(C=O)c(-c2ccc3c(c2)OCCO3)c2ccccc21 | -8%
N#Cc1nc(COc2ccccc2)oc1N1CCCCCC1 | -10%
CC(=O)c1cc(Cl)ccc1OC(=O)c1ccco1 | -12%
CCOC(=O)C1CN(S(=O)(=O)c2ccccc2)C1 | -3%
FC(F)(F)c1cccc(N2CCN(Cc3cccnc3)CC2)c1 | -11%
COc1ccc(C(CC(=O)O)NC(=O)C2CCCCC2)cc1 (centres undefined) | 2%
Nc1cc(-c2ccccc2)n2c(n1)nc1ccccc12 | 2%

The whole of this part, previewed entries included:
SMILES | VDR inh
CN(Cc1cccs1)C(=O)CN1C(=O)c2ccccc2S1(=O)=O | -6%
Cc1c(Cl)cccc1NC(=O)Nc1ccc(C(N)=O)cc1 | 7%
Cc1nn(CC(=O)N2CCN(C)CC2)c(=O)c2ccccc12 | -20%
Oc1ccc(Br)cc1CNc1nccs1 | -5%
CCC(=O)Oc1oc(-c2ccccc2)nc1C=Nc1ccc(C)cc1 | -10%
N#Cc1ccc(OCCN2CCc3ccccc3C2)cc1 | 6%
CN(C(=O)COC(=O)c1ccc(C(C)(C)C)cc1)C1CCS(=O)(=O)C1 (centres undefined) | 2%
Clc1ccc(Nc2ccccc2)nn1 | -1%
OC(COc1ccc(F)cc1)CN1CCN(c2ccccc2F)CC1 (centres undefined) | 13%
Cc1cccc(OCCCC(=O)Nc2ccc(S(=O)(=O)N3CCCC3)cc2)c1 | -4%
Cn1c(C=O)c(-c2ccc3c(c2)OCCO3)c2ccccc21 | -8%
N#Cc1nc(COc2ccccc2)oc1N1CCCCCC1 | -10%
CC(=O)c1cc(Cl)ccc1OC(=O)c1ccco1 | -12%
CCOC(=O)C1CN(S(=O)(=O)c2ccccc2)C1 | -3%
FC(F)(F)c1cccc(N2CCN(Cc3cccnc3)CC2)c1 | -11%
COc1ccc(C(CC(=O)O)NC(=O)C2CCCCC2)cc1 (centres undefined) | 2%
Nc1cc(-c2ccccc2)n2c(n1)nc1ccccc12 | 2%
COc1ccccc1CN(C)C(=O)CN1CCN(C(=O)c2cccs2)CC1 | 4%
COc1ccc(NC(=O)c2ccc(OC)c(S(=O)(=O)N3CCCCC3C)c2)cn1 (centres undefined) | 5%
C=C1NC(=O)c2cc(CN(C)c3ccc(C(=O)N[C@@H](CCC(=O)O)C(=O)O)s3)ccc2N1 | 2%
CC1(C)CC(=O)c2cnc(N)nc2C1 | ?
CC(=O)c1ccc(C2CC34CN(Cc5cccc(Cl)c5)S(=O)(=O)C3CC2O4)cc1 (centres undefined) | -12%
CCOC(=O)c1c(NC(=O)Cn2nc(C(F)(F)F)cc2C)sc(C)c1C | -10%
O=[N+]([O-])c1ccccc1Oc1cnc2ccccc2n1 | -2%
CN(Cc1ccccc1)C(=O)C1CCN(Cc2cc3ccccc3n2Cc2ccccc2)CC1 | 10%
CC(=O)Nc1ccc(NC(=O)CSc2nnc(-c3ccccc3)n2Cc2ccc3c(c2)OCO3)cc1 | 23%
COc1ccc(C(=O)NCCn2cc(SCC(=O)N3CCOCC3)c3ccccc32)cc1 | 1%
O=C1CCC([N+](=O)[O-])C(c2ccc(Br)cc2)N1 (centres undefined) | -1%
CCOC(=O)c1cc(-c2ccccc2C)nn1CC1CC(c2cccnc2)=NO1 (centres undefined) | -26%
O=C(ONc1ccc(N=NC(=O)c2ccccc2O)cc1)c1ccccc1 | -29%
O=C(NCc1ccccc1)C1=C[C@@H](c2csc3ccccc23)C[C@@H](OCCCCO)O1 | 0%
Cc1nn(C)c(Oc2ccccc2)c1CCNS(=O)(=O)c1ccc(F)cc1 | -26%
N#C/C(=C/c1cn(-c2ccccc2)nc1-c1cccc(S(=O)(=O)N2CCCC2)c1)C(=O)NCc1ccco1 | -15%
CCOC(=O)CNC(=O)CSc1nnc(NC(=O)c2ccc3c(c2)OCO3)s1 | -3%
Cc1ccc(S(=O)(=O)CCC(=O)OCC(=O)NC(=O)c2ccccc2)cc1 | -1%
COC(=O)c1ccccc1NC(=O)CNC(=O)c1ccc(OC)cc1 | 2%
Cc1ccccc1OCC(=O)Nc1nc2ccccc2[nH]1 | 11%
Cn1cc(CN2CCN(c3ccc(Cl)cn3)CC2)c(-c2ccccc2F)n1 | -23%
CC(CC(O)C1OC1(C)C)C1CCC2(C)C3=CCC4C(C)(C)C(=O)CCC4(C)C3CC[C@@]12C (some centres undefined) | ?
CSCCC(NC(=O)c1ccco1)C(=O)NCCc1ccc(Cl)cc1 (centres undefined) | 2%
CCc1ccc(NC(=O)Cn2c(=O)n(CCC(C)C)c(=O)c3cccnc32)cc1 | -4%
CC(=O)Nc1nnc(C)s1 | -16%
CC1CCN(c2c(NCc3ccc(C(=O)NCCc4ccc(Cl)cc4)cc3)c(=O)c2=O)CC1 | -11%
O=C(CSc1nc(-c2ccccc2)no1)N1CCCCC1 | 2%
O=C(CN1CCN(S(=O)(=O)c2ccccc2[N+](=O)[O-])CC1)NC(=O)NCc1ccco1 | -3%
Cc1cc(Nc2cccc(Cl)c2)nc2ccc(NC(=O)Cc3c(F)cccc3Cl)cc12 | 12%
CCOc1ccccc1C1C(C#N)=C(SCC(=O)OC)NC(=O)C1C(=O)OC (centres undefined) | -2%
Cc1cnc(CNc2nc(-c3ccc(N(C)C)cc3)nc3ccccc23)cn1 | -19%
Cc1cccc(-c2nnn(Cc3nnc(NC(=O)c4ccccc4)s3)n2)c1 | -15%
COc1ccc(-c2[nH]ncc2CN(C)C(C)c2ccon2)cc1F (centres undefined) | 0%
Brc1ccc2[nH]c3c(NCc4ccccn4)ncnc3c2c1 | -8%
COc1ccc(CSc2nnnn2-c2ccc(C(=O)O)cc2)cc1 | -12%
C[C@](N)(COP(=O)(O)O)C(=O)O | -6%
CC(=O)N1CCCN(Cc2nc(C3(c4ccc(C)cc4)CCCC3)no2)CC1 | -16%
Cc1ccc(C(CC(=O)NCC2(c3ccccc3)CCCC2)c2ccccc2)c(O)c1 (centres undefined) | ?
COC(=O)NC1CCS(=O)(=O)C1 (centres undefined) | 11%
COc1ccccc1NC(=O)C1=C(C)Nc2nc(CCCO)nn2C1c1ccc2c(c1)OCO2 (centres undefined) | 6%
CCOc1ccc(S(=O)(=O)N2CCN(CC)CC2)cc1NC(=O)c1ccccc1F | -15%
CCc1ccc(CNC(=O)CCCn2ccc3cc(S(=O)(=O)N4CCCC4)ccc32)cc1 | 2%
NC(=O)CSc1nnc(-c2ccc3c(c2)OCO3)o1 | -5%

(continued)
SMILES | VDR inh
Cc1nc(N)nc(N)c1/C=C/C(C)(C)c1ccc(Cl)cc1 | -4%
CC(C)c1nc2n[nH]c(N)c2c2c1CCCC2 | -10%
CNC(=O)COc1ccc(Cl)c2cccnc12 | 11%
COc1ccc(/C=N/NC(=O)c2ccc(N)cc2)cc1Cn1cc([N+](=O)[O-])cn1 | -3%
O=C(CSc1ccc(-c2ccco2)nn1)Nc1ccccc1 | -5%
COc1ccc(OC)c(CNC(=O)c2cc(S(=O)(=O)N3CCC(C)CC3)cn2C)c1 | 7%
Oc1ccc(-c2[nH]ncc2-c2ccc(Cl)cc2)c(O)c1 | 10%
O=C(c1ccc(NS(=O)(=O)c2ccc(F)cc2)cc1)N1CCOCC1 | 2%
CC(=O)Nc1ccc(CCCCc2ccc(NC(C)=O)cc2)cc1 | -3%
CC(=O)OCC(=O)[C@]1(O)C(OC(C)=O)CC2C3CCC4=CC(=O)C=C[C@@]4(C)[C@]3(F)C(O)C[C@]21C (some centres undefined) | 12%
COc1ccc(-c2nsc3c(SCc4ccccc4)ncnc23)cc1 | ?
O=C(O)CN1CCN(c2ncc(C(F)(F)F)cc2Cl)CC1 | -20%
O=C(NCC(=O)N1CCN(Cc2ccccc2)CC1)c1cccs1 | -2%
Cc1ccc(OCCn2cnc3cc([N+](=O)[O-])ccc3c2=O)cc1 | -7%
Cc1ccc(SCc2c(C(=O)N/N=C/c3ccc4c(c3)OCO4)nnn2-c2nonc2N)cc1 | -20%
COc1ccc(NS(=O)(=O)CC(C)C)c(OC)c1 | -7%
Cc1cc(Cl)ccc1NC(=S)N1CCN(Cc2ccccc2)CC1 | -20%
O=C(Cn1c(=O)n(-c2ccc(F)c(Cl)c2)c(=O)c2sc3ccccc3c21)NC1CCCCC1 | -7%
CCCNc1nc(C)cc(-c2cc(C(=O)NCc3ccccc3)on2)n1 | -12%
CC1(C)CC(=O)C2=C(C1)N(c1ccccc1C#N)C(N)=C(C#N)C2c1cccs1 (centres undefined) | 4%
O=C(Nc1cc(C(F)(F)F)ccc1Cl)c1ccc2c(c1)CCN2S(=O)(=O)c1ccccc1 | 10%
CCOC(=O)N1CCC(N2CCN(c3cc(C)ccc3C)CC2)CC1 | 2%
Cn1c(=O)c2cc(S(=O)(=O)N3CCOCC3)ccc2n(C)c1=O | 6%
O=C1N/C(=N\N=C\c2cccnc2)SC1Cc1ccc(SC(F)F)cc1 (centres undefined) | -12%
Cc1cc(NC(=O)c2ccc3[nH]c(C)c(C)c3c2)ccn1 | 13%
CC(=O)N/N=C/c1cc([N+](=O)[O-])ccc1OCCOc1ccccc1 | -2%
CCOc1ccccc1C(=O)NCC(=O)OCc1c(C)noc1C | -9%
Cc1cc(C)nc(NS(=O)(=O)c2ccc(NC(=O)c3ccc(S(=O)(=O)N4CC(C)OC(C)C4)cc3)cc2)n1 (centres undefined) | -2%
CCOC(=O)c1cc2c(ccn2C)n1CC(=O)N(Cc1ccccc1)c1ccccc1 | -8%
O=C(N/N=C\c1cccnc1)c1cc(-c2ccc(Cl)s2)[nH]n1 | 4%
Cc1cccc(C(=O)O/N=C/c2c(Cl)n(C)c3ccccc23)c1 | -1%
CN1C(=O)C(=O)N(c2cccc(C(F)(F)F)c2)C1=O | 9%
COc1ccc(N2CCN(C(=O)Cn3cnc4sc(C)c(S(=O)(=O)N5CCOCC5)c4c3=O)CC2)cc1 | -10%
CCNS(=O)(=O)c1ccc(Br)c(OC)c1 | -14%
Cc1[nH]c2ccccc2c1/C=N/NC(=O)c1cccc(S(=O)(=O)Nc2ccccc2Cl)c1 | -2%
O=S(=O)(NCC(Nc1ccc(Cl)cc1)c1ccccc1)c1ccccc1 (centres undefined) | 3%&11%
O=C1C(=O)N(CCCn2ccnc2)C(c2ccc([N+](=O)[O-])cc2)/C1=C(\O)c1ccc2c(c1)OCCO2 (centres undefined) | -4%
CC(=O)c1cccc(NC(c2ccc(F)cc2)c2nnc(-c3ccccc3)o2)c1 (centres undefined) | -2%
COc1ccc(-c2nnc(SCC(=O)N(C)C3CCS(=O)(=O)C3)n2N)cc1OC (centres undefined) | -9%
CCCCn1c(N)c(N(CC(C)C)C(=O)C2CCN(S(=O)(=O)c3ccc(C)c(C)c3)CC2)c(=O)[nH]c1=O | -7%
N/C(=N\S(=O)(=O)c1cc(C(F)(F)F)cc(C(F)(F)F)c1)c1cccs1 | 9%
O=C(CN1CCN(S(=O)(=O)c2ccccc2)CC1)Nc1ccc(Cl)c([N+](=O)[O-])c1 | -7%
CCCCOCCCNC(=O)Cc1cccs1 | -6%
COc1ccc(OC)c(C2/C(=C(\O)c3ccc(OC)c(Cl)c3)C(=O)C(=O)N2CCN(C)C)c1 (centres undefined) | -1%
O=S(=O)(Nc1cccc2cccnc12)c1cccc2ccccc12 | 6%
O=C(N/N=C/c1nn(-c2ccccc2)cc1-c1ccccc1)c1ccncc1 | -15%
COc1ccc(Cl)cc1N(CC(=O)N/N=C/c1ccc(OC(C)C)cc1)S(=O)(=O)c1ccc(C)c([N+](=O)[O-])c1 | 5%
COc1cc(CNCCO)cc(Br)c1OCc1cccs1 | 16%
O=C1N=C(N2C=CC(=C3C=CNC=C3)C=C2)/C(=C/N=NC(=O)c2ccccc2O)S1 | 4%
CC1(C)CNC(=O)c2sc(N3CCCCC3)nc2C1 | 0%
Cc1cc(Cl)ccc1NC(=O)Nc1c(C)n(-c2ccccc2)c(=O)n1C | 2%
COc1ccc(N2CCN(C(=O)CCCNC(=O)Cn3cnc4sc(C)c(C)c4c3=O)CC2)cc1 | -7%
COc1ccc(-c2nc(Cn3c(=O)cc(C)c4c(C)nn(-c5ccccc5)c43)c(C)o2)c(OC)c1 | 3%
Cc1c(N=C2N=C(NC(=O)c3cccs3)c3ccccc32)c(=O)n(-c2ccccc2)n1C | 1%
C#CCOCCOCCOCCNc1nc(N2CCN(C(=O)Cn3cc(CCCCN)nn3)CC2)nc(N2CCN(C(=O)Cn3cc(CCCN=C(N)N)nn3)CC2)n1 | 5%
OC(COc1ccccc1)CN1CCN(Cc2ccc3c(c2)OCO3)CC1 (centres undefined) | 16%
CCCc1cc(C(=O)Nc2cccnc2)no1 | -11%
O=C(Nc1ccc2cccnc2c1)c1ccc(Br)cc1 | -23%
CC1CCCN(CCCNC(=O)c2cc3c(Cl)nc4ccccc4c3s2)C1 (centres undefined) | -2%&7%
COc1ccc(S(=O)(=O)N2CCSC2c2ccc(OC)c(OC)c2)cc1 (centres undefined) | 2%
CCOC(=O)CNC(=O)CSc1cc(C)nc2ccc(OC)cc12 | 20%

Sorted by the number under VDR inh (low to high): some entries from above.
SMILES | VDR inh
CC1(C)CNC(=O)c2sc(N3CCCCC3)nc2C1 | 0%
COc1ccc(Cl)cc1N(CC(=O)N/N=C/c1ccc(OC(C)C)cc1)S(=O)(=O)c1ccc(C)c([N+](=O)[O-])c1 | 5%
CCOC(=O)CNC(=O)CSc1cc(C)nc2ccc(OC)cc12 | 20%

A portion of the library. The share of hits here may be higher or lower than overall.
